# Screening results as filed in PubChem BioAssay.
# TRPML1 inh: qHTS for Inhibitors of the Human Mucolipin Transient Receptor Potential 1 (TRPML1) | Mucolipin-1 (Homo sapiens), Q9GZU1 | TRPML1-inducible cells, Ca2+ dye fluorescence, FDSS; active compounds read low; inhibition of EC80 agonist-evoked calcium signal | activity change, negative = inhibition, % (no concentration beside the values) | 0.02% of 390,000 active | AID 624415, 2012; in the data active means activity change below about -50%; inconclusive means about -30% to -50%; inactive means above about -30%;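 note: stimulus is agonist 54-4 at its EC80 concentration; % is set by controls: 0 for no effect and ±100 for the full control effect; compound concentration not given in the record; the text of the record puts the active cut at -80%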
# Target sequence (Q9GZU1 whole entry, looked up): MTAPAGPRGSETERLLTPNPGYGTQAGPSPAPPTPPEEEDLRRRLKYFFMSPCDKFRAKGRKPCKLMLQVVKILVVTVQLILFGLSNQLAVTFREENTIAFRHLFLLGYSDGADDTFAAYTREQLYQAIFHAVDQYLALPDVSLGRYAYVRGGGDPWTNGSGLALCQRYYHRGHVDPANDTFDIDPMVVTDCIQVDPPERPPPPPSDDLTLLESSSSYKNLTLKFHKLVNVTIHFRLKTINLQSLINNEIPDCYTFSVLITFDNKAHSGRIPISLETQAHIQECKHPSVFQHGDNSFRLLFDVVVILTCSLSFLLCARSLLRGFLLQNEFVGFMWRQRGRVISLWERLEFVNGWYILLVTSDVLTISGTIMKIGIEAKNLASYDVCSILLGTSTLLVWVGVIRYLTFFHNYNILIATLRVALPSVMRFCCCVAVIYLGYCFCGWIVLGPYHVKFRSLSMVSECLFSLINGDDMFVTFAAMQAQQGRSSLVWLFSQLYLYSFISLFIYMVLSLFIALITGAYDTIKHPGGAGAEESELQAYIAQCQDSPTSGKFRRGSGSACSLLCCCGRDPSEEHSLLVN
#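 Tet-induced TRPML1-DL cells loaded with Ca8 no-wash calcium dye were read kinetically on FDSS. Compound addition was followed by EC80 agonist 54-4 (4 uM final); inhibition was read over 110 s.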
# TRPML1 agonist: qHTS for Agonists of the Human Mucolipin Transient Receptor Potential 1 (TRPML1) | AID 624414, 2012 | TRPML1-expressing cells, Ca2+ dye fluorescence, FDSS; host cell line not named in the record; reference of the full effect not given here | 0.12% of 410,000 active | activation, % (no concentration beside the values) | Mucolipin-1 (Homo sapiens), Q9GZU1; in the data active = activation above about 50%; inconclusive = about 30% to 50%; inactive = below about 30%; note: 0% is about no effect; the text of the record puts the active cut at 80%
#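 TRPML1-DL cells, Tet-induced overnight (~16 h, 37 degrees C), loaded 45-90 min at room temperature with Ca8 no-wash calcium dye plus quencher. FDSS fluorescence: 10 s baseline, compound pin-transfer, 110 s agonist read, then EC80 54-4 (4uM final) and 110 s antagonist read.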
# Starred values were filed as active, the others as inactive.
SMILES,TRPML1 inh,TRPML1 agonist
COc1ccc(C(=O)COC(=O)c2cccc(NC(=O)c3ccc(OC)c(OC)c3)c2)cc1,-13.8,-0.1
O=C(NCCn1cc(SCc2ccccc2Cl)c2ccccc21)c1cccs1,1.9,0.2
COc1ccc(NC(=O)C(=O)NCCc2csc(-c3ccc(Cl)cc3)n2)cc1,-10.2,-0.6
CC(=O)c1ccc(N2CCN(S(=O)(=O)c3cc(-c4onc(C)c4C)ccc3C)CC2)cc1,20.1,0.1
COc1ccc(Nc2ncnc3c2cnn3C)c(OC)c1,-6.0,-0.4
Cc1ccc(Cn2c(=O)n(CCc3ccccc3)c(=O)c3sc4ccccc4c32)cc1,5.9,-0.1
COc1ccc(C2C(=O)N(C3CCC(C)CC3)CC(=O)N2C2CCCC2)cc1OC (stereo not given),1.8,0.3
COc1ccc(S(=O)(=O)c2cn(Cc3ccccc3)c3cc(N4CCCC4)c(F)cc3c2=O)cc1,-13.6,0.2
Cc1cccc(Cc2c(C)nc3nc(SCc4ccccc4Cl)nn3c2C)c1,-4.7,1.1
COc1ccccc1NC(=O)C1CCN(C(=O)c2sc3nc[nH]c(=O)c3c2C)CC1,3.8,-0.4
COc1ccc(Cl)cc1NC(=O)CCn1nc(C)cc1C,-18.4,0.5
O=C(NCc1cccs1)c1ccc(CSc2nc3ccncc3n2Cc2cccc(F)c2)cc1,-12.0,3.2
Cc1coc2cc3oc(=O)c(CC(=O)NCc4ccccc4)c(C)c3cc12,32.2,-1.1
COc1ccc(N2CCN(C(c3ccc(F)cc3)c3sc4nc(-c5ccco5)nn4c3O)CC2)cc1 (stereo not given),3.8,2.4
O=C(CSc1nc2ncccc2[nH]1)Nc1cc(F)ccc1F,5.9,-0.5
CC(=O)N1c2ccc(S(=O)(=O)NCC3CCC(C(=O)Nc4ccc(C)cc4)CC3)cc2CC1C (stereo not given),-15.4,0.1
Cc1ccc2oc3c(c(=O)c2c1)C(c1ccc(O)cc1)N(c1nc(C)c(C)s1)C3=O (stereo not given),-6.9,0.4
Cc1nn(-c2ccccc2)c2sc(C(=O)Nc3cccc(Cl)c3)cc12,-4.6,0.8
Cc1ccccc1N(C)C(=O)c1noc2c1COc1ccccc1-2,-6.9,1.1
COCCN(CCOC)S(=O)(=O)c1ccc(C(=O)Nc2sc3c(c2C(N)=O)CCCC3)cc1,6.8,4.8
CCOC(=O)c1cnn(-c2ccc(C(=O)Nc3cc(OC)c(OC)c(OC)c3)cc2)c1N,-12.4,1.7
CC(=O)c1sc(N2C(=O)c3oc4ccccc4c(=O)c3C2c2ccc(C)cc2)nc1C (stereo not given),20.2,2.9
Cc1cccc(CC(=O)Nc2cccc(-c3cn4cccnc4n3)c2)c1,-8.4,-0.5
O=C(CCC1N=C2c3ccccc3N=C(SCc3ccc(F)cc3)N2C1=O)N1CCN(c2ccccc2)CC1 (stereo not given),5.2,1.3
CCC(=O)N1CCc2cc(Br)cc(S(=O)(=O)CCC(=O)N3CCN(c4cc(C)ccc4C)CC3)c21,-14.7,-1.1
COc1ccccc1NC(=O)CSc1nnc(-c2ccccc2C)o1,-3.0,2.1
COC(=O)c1ccc(NC(=O)C2CCN(C(=O)c3ccc(F)cc3)CC2)cc1,1.8,-1.0
COc1ccc(S(=O)(=O)N(CCc2ccccc2)CC(=O)NCc2ccccc2)cc1OC,12.4,0.9
Cc1cc(-n2c(C)nc3ccccc3c2=O)ccc1NC(=O)c1cccc([N+](=O)[O-])c1,-6.3,-0.1
O=C(NCc1cccc(Cl)c1)c1ccc2c(c1)nc1n2CCOC1,-8.3,0.1

# Among those listed so far, three have two or more sulfur atoms.
SMILES,TRPML1 inh,TRPML1 agonist
O=C(NCCn1cc(SCc2ccccc2Cl)c2ccccc21)c1cccs1,1.9,0.2
O=C(NCc1cccs1)c1ccc(CSc2nc3ccncc3n2Cc2cccc(F)c2)cc1,-12.0,3.2
COCCN(CCOC)S(=O)(=O)c1ccc(C(=O)Nc2sc3c(c2C(N)=O)CCCC3)cc1,6.8,4.8

# Other structures follow.
SMILES,TRPML1 inh,TRPML1 agonist
CCOc1ccc(NC(=O)c2ccc3c(c2)CCN3S(=O)(=O)CC)cc1,-12.6,-0.7
O=S(=O)(c1ccc(Br)cc1)c1nnn2c1nc(NCCc1ccccc1)c1sccc12,-3.4,0.1
Cc1ccccc1CNC(=O)c1ccc(NC(=O)N2CCCCc3ccccc32)cc1,-10.1,-0.4
COc1ccccc1NCc1cccn1-c1nnc(N2CCCCCC2)s1,-9.2,1.4
COCCNC(=O)CSc1nnc(-c2ccc(OC)c(OC)c2)c(-c2ccc(OC)c(OC)c2)n1,-18.4,0.8
CCOc1ccc(C(=O)NCCc2sc(-c3ccc(OC)c(OC)c3)nc2C)cc1,41.9,3.8
Cc1ccc(-c2nnc3c4ccccc4c(C)nn23)cc1NC(=O)c1cccc(Br)c1,-10.7,-0.5
COc1ccc(CNC(=O)COCc2cc(-c3cccs3)on2)cc1,0.1,0.8
CCc1ccc(S(=O)(=O)c2nnn3c2nc(NCc2ccccc2OC)c2cc(Cl)ccc23)cc1,11.3,-0.5
CCCC(=O)NCc1nc2cccnc2n1Cc1ccc(F)cc1,1.8,0.5
COc1ccc(S(=O)(=O)c2c(O)c3ccc(C(=O)NCc4ccc(F)cc4)cc3[nH]c2=O)cc1,-8.2,0.2
Cc1ccccc1C(=O)n1nc(-c2ccco2)nc1NCc1ccc(Cl)cc1,-16.4,-0.3
CCOc1ccc(-c2cc3nc(C4CCN(C(=O)OC(C)(C)C)CC4)c(C(=O)Nc4c(C)cccc4C)cn3n2)cc1,71.0,-0.4
CCOC(=O)c1cnc2c(Cl)cc(Cl)cc2c1Nc1ccccc1OC,-11.6,0.3
COc1ccc(NC(=O)CSCc2cnn(-c3ccccc3)c2-n2cccc2)cc1,17.2,4.0
Cc1ccccc1CN1C(=O)C(O)(CC(=O)c2ccccc2)c2cc(Cl)ccc21 (stereo not given),-4.9,0.6
O=C(c1cnc(N2CCCCC2)c2ccccc12)N1CCN(c2ccccc2F)CC1,-6.8,-0.8
CCOC(=O)c1c(C)[nH]c(C)c1S(=O)(=O)N1CCCC(C(=O)Nc2cc(C)ccc2C)C1 (stereo not given),-12.4,-0.8
COc1ccc(-c2ccc(-c3noc(-c4cc(OC)cc(OC)c4)n3)c(OC)n2)cc1,-14.7,0.2
COc1ccc(-c2noc(-c3nnn(-c4ccc(C(C)C)cc4)c3C)n2)cc1OC,18.3,0.3
COc1cccc(CN2c3ccccc3-c3nc(SCC(=O)Nc4ccccc4Cl)ncc3S2(=O)=O)c1,-3.5,1.2
COCCn1c(CNC(=O)c2ccccc2C)nc2cccnc21,5.2,-0.6
CC1=C(C(=O)Nc2cccc(C(F)(F)F)c2)C2(CCN(C(C)C)CC2)OC1=O,-12.7,0.0
COc1ccc(-n2c(C)nnc2SCc2nc(-c3ccc(OC)c(OC)c3)no2)cc1,17.9,-1.0
COc1ccc(CCNC(=O)Cn2ncc3c(C)n(Cc4ccccc4F)c(C)c3c2=O)cc1OC,-10.0,-0.5
COc1cccc(C(=O)N2CCN(CCc3ccncc3)CC2)c1,-16.0,1.5
CCOC(=O)c1cc2c(=O)n3ccccc3nc2n(CCOC)c1=NC(=O)C(C)(C)Oc1ccc(Cl)cc1,7.2,-0.7
COc1ccc(NC(=O)c2cc3cc(C)ccc3[nH]2)cc1,16.2,-1.0
COc1cc(OC)c(N(C)C(=O)c2sc3nc4n(c(=O)c3c2C)CCCCC4)cc1Cl,20.2,0.4
CCOC(=O)c1[nH]c2c(c1Cc1ccccc1)C(=O)CC(c1ccc(OC)cc1)C2 (stereo not given),21.1,1.2
Cc1ccc(C)c(Cn2c(SCC(=O)N(C)Cc3ccccc3)nc3ccccc32)c1,52.8,0.0
CNC(=O)C1CCN(C(=O)N2CC(C)Oc3ccc(C)cc32)CC1 (stereo not given),-2.4,-0.5
O=C(CSc1nc2c([nH]c3ccccc32)c(=O)n1-c1cccc(Cl)c1)NCc1ccccc1,2.1,3.2
COc1ccc(NC(=O)CSc2nc3nc(C)c(Cc4ccccc4)c(C)n3n2)cc1OC,1.2,0.8
COc1ccc(Cl)cc1NC(=O)CSc1nc2c([nH]c3ccccc32)c(=O)n1-c1ccccc1,8.6,-0.2
Cc1nc2sccn2c(=O)c1S(=O)(=O)Nc1cc(C(F)(F)F)ccc1Cl,20.1,0.8
COc1ccc(-c2nc(SCC(=O)NCc3ccccc3Cl)n[nH]2)cc1,8.4,3.1
CCc1ccc(-n2nc(CO)c(C(=O)NCCc3ccccc3)n2)cc1,-3.4,1.3
CCCn1ccc2c(OCC(=O)Nc3cc(C)ccc3C)cccc2c1=O,-19.8,1.0
COC(=O)C(CCSC)NC(=O)c1cc2c(n(-c3ccc(OC)cc3)c1=O)CC(C)(C)CC2=O (stereo not given),-4.5,-0.5
CCOc1ccc(NC(=O)C(=O)NCCc2sc(-c3ccc(C)cc3)nc2C)cc1,6.7,5.4
CCOc1ccc(NC(=O)C(C)n2c(=O)cc(-c3ccccc3)c3c(C)nn(C)c32)cc1 (stereo not given),4.7,0.3
O=C(Cn1ncc2c3ccccc3n(Cc3ccccc3)c2c1=O)N1CCCCCC1,-0.8,4.7
CCN(CC)c1ccc2cc(-c3nc(-c4ccccc4)no3)c(=O)oc2c1,-7.7,28.1
CCc1ccc(CN(Cc2ccco2)C(=O)c2ccccc2Cl)cc1,10.5,3.7
Cc1cccc(-n2c3nc(=O)[nH]c(=O)c-3cc3c(Cl)cccc32)c1C,-13.7,7.7
CCC(C(=O)OC)n1nnc2sc(-c3ccccc3)cc2c1=O (stereo not given),0.1,3.5
COc1cccc(NC(=O)c2oc3ccccc3c2NC(=O)C2CCCCC2)c1,-14.3,1.4
CCc1ccccc1NC(=O)CCn1nc(C)c2c(C)n(-c3ccccc3)nc2c1=O,-1.3,-1.1
CCOC(=O)C(Cc1ccccc1)NC(=O)CCc1c(C)nc2c(c(C)nn2-c2ccc(C)c(C)c2)c1C (stereo not given),14.5,-1.1
COc1ccc(C2CC(=O)NC(NC(=O)c3ccc(Br)cc3)=N2)c(OC)c1OC (stereo not given),-6.8,1.3
Cc1ccc(S(=O)(=O)N(CC(=O)Nc2ccc3c(c2)OCO3)c2ccc(C)c(Cl)c2)cc1,9.5,2.4
O=C(Cn1c(-c2cccs2)cc2cc(Cl)ccc21)N1CCN(c2ccccc2)CC1,0.3,3.1
CCOc1ccc(CC(=O)Nc2ccc3c(c2)N(C)C(=O)c2ccccc2S3)cc1OCC,-7.1,2.1
COc1cc(-c2cc3n(C)c(C)c(CCC(=O)NC4CCCCC4)c(=O)n3n2)cc(OC)c1OC,-5.1,-0.4
CCCCS(=O)(=O)CC(O)CSc1nc(-c2ccc(C)cc2)cc(-c2ccccc2)c1C#N (stereo not given),-9.2,0.4
O=C(CCC1N=C2c3ccccc3N=C(SCc3ccccc3Cl)N2C1=O)N1CCN(c2ccccc2)CC1 (stereo not given),-5.6,0.6
CCOc1ccccc1CNC(=O)c1cn(-c2ccc(OC)cc2)c(=O)c2ccccc12,-2.5,2.5
CCCn1c(SCC(O)c2cccc(OC)c2)nc2ccccc21 (stereo not given),-11.8,-0.1
Cc1ccc(CNC(=O)c2ccc(NC(=O)c3nsc4ccccc34)cc2)cc1,-9.1,0.1

# Exported with each value named: 4 of the compounds above.
SMILES: O=C(CCC1N=C2c3ccccc3N=C(SCc3ccccc3Cl)N2C1=O)N1CCN(c2ccccc2)CC1 (stereo not given)
  TRPML1 inh: -5.6
  TRPML1 agonist: 0.6
SMILES: CCOc1ccccc1CNC(=O)c1cn(-c2ccc(OC)cc2)c(=O)c2ccccc12
  TRPML1 inh: -2.5
  TRPML1 agonist: 2.5
SMILES: CCCn1c(SCC(O)c2cccc(OC)c2)nc2ccccc21 (stereo not given)
  TRPML1 inh: -11.8
  TRPML1 agonist: -0.1
SMILES: Cc1ccc(CNC(=O)c2ccc(NC(=O)c3nsc4ccccc34)cc2)cc1
  TRPML1 inh: -9.1
  TRPML1 agonist: 0.1

# Other entries follow:
SMILES,TRPML1 inh,TRPML1 agonist
CCCN1CCN(CCNC(=O)Nc2ccc(OC)c(OC)c2)CC1,-4.2,-0.5
Cc1nn(C(=O)COc2ccccc2)c(C)c1Sc1ccccc1,5.0,1.3
COc1ccc(C2CC(O)(c3ccccc3)Oc3c(C)ccc(C(C)C)c32)cc1 (stereo not given),13.9,0.3
CCC(=O)N1c2ccccc2CC1C(=O)N1CCN(c2cccc(OC)c2)CC1 (stereo not given),-15.7,0.0
CCCOc1cccc(C(=O)Nc2ccc(-c3nc4ccccc4s3)c(Cl)c2)c1,4.0,0.8
Cc1ccc(-n2ncc(C(=O)NCCCN3CCN(c4cccc(Cl)c4)CC3)c2-n2cccc2)cc1,1.2,0.2
Cn1c2ccccc2c2cnn(CC(=O)NCc3ccc(Cl)cc3)c(=O)c21,28.1,1.5
CC(C)c1ccc(OCC(=O)Nc2c(C(=O)c3ccc(F)cc3)oc3ccccc23)cc1,18.8,2.2
CCC1CN(C(=O)N2CCC(C(=O)NCCc3ccccc3Cl)CC2)c2cc(C)ccc2O1 (stereo not given),29.7,2.3
O=C(Nc1cc(F)ccc1F)C1CCN(c2nc3ccccc3n3cccc23)CC1,-7.5,3.1
COc1ccc(Cl)cc1NC(=O)Cn1c(=O)n(Cc2nc(C)no2)c(=O)c2ccccc21,4.6,-0.3

# A portion of the library, so the mix of outcomes need not match the whole.
